HSD17B inh: inhibitors of human HSD17B10 dehydrogenase; Potency, µM (titrated, usually from 57.1 µM), inactives show at the highest dose activity change, negative = inhibition, usual class: inhibitors; AID 893; recombinant HSD17B10, NADH fluorescence kinetic; many of its hits are not listed in these tables; Q99714; actives 7.6% (n = 75,000); active = well fitted inhibition curve with a large enough effect; inconclusive = small, poorly fitted or top-dose-only effect; inactive = no such curve, though single readings can be large or run the other way;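 note: the protocol describes HADH2 (HSD17B10) and not the HSD17B4 of the title; nearly all actives have a fitted effect of over 70% in size; most hits overshoot -100% by far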
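Activity followed as NADH fluorescence increase (ex 360, em 450 nm) every 30 seconds for 4 min, using final 90 uM beta-hydroxybutyryl CoA and 1 mM NAD+. Recombinant His-tagged enzyme, 20 nM, pH 9.0 Tris buffer, 15 min compound preincubation.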
* marks the source's active call; other numbers are inactive results; ? = inconclusive; & = joins results of further samples; [ ] = remark or other dose. % is set by controls: 0 for no effect and ±100 for the full control effect; potency is the fitted concentration of half-maximal effect. Some of the compounds tested. The share of hits here may be higher or lower than overall.

SMILES | HSD17B inh
Cc1nn(-c2ccc(C(=O)O)cc2)c(=O)c2ccccc12 | 3.0%
CCOC(=O)Nc1nnc(CCc2ccccc2)s1 | 16.6%
O=C(CSc1nnc(C2COc3ccccc3O2)o1)NC1CCCCC1 (stereo unspecified) | -12.5%
COc1ccc(C)cc1NC(=O)c1nnn(CCc2ccccc2)c1N | -25.6%
CS(=O)(=O)N1CCC2(CCCN(c3cccc(-c4ccccc4)c3)C2)CC1 | -19.7%
Cc1cccc(-n2nnnc2SCC(=O)NCCN2C(=O)CSC2=O)c1 | 4.4%
O=C(CN1C(=O)CCS(=O)(=O)c2ccccc21)Nc1ccc2c(c1)OCCO2 | -0.8%
NS(=O)(=O)c1ccc(CCNc2ncnc3sccc23)cc1 | 11.2%
CC1CCCC(C)N1c1nnc(NC(=O)Cn2c(=O)oc3ccccc32)s1 (stereo unspecified) | -26.4%
CCc1nc(OCCN(CC)CC)c2oc3ccccc3c2n1 | 5.6%
O=C(CNC(=O)c1cccs1)OCC(=O)c1cccs1 | -7.7%
CCCc1cc(=O)[nH]c(SCC(=O)N(Cc2ccccc2)C(C)C)n1 | -4.8%
CCCCCCc1c(O)nc(SCC(=O)O)[nH]c1=O | -0.3%
CCNc1nc(OC)nc(SCC(N)=O)n1 | 0.7%
CCCc1cc2c(=O)c(-c3ccccn3)c(C)oc2cc1O | 31.6µM*
CCOC(=O)c1cnc2scnn2c1=O | ?
Cn1c(=O)c2nc(-c3ccccc3)oc2c2ccccc21 | 25.1µM*
O=c1cc(N2CCN(c3ccc(F)cc3)CC2)[nH]c(=O)n1C1CCCCC1 | 3.7%
CCOC(=O)Cc1cc(=O)n(-c2nc3ccccc3s2)[nH]1 | ?
COc1ccccc1-c1nc(NC2CC2)c2ccccc2n1 | -4.9%
O=C(Nn1cnnc1)c1ccccc1CCc1ccccc1 | 3.9%
COc1ccccc1C(=O)C1Nc2ccccc2-c2nnc(SC)nc2O1 (stereo unspecified) | -6.3%
O=C(NCc1ccccc1Br)c1ccco1 | 5.1%
O=C(NCCCN1CCOCC1)C1CCC(=O)N1CCc1ccccc1 (stereo unspecified) | 3.6%
CN1CCN(CC#CC2(O)CCCCC2)CC1 | 0.7%
CCC(=O)Nc1nonc1-c1nc2ccccc2n1Cc1ccc(Cl)c(Cl)c1 | -14.2%
CCCCCn1c(=O)[nH]c2cc(C(=O)NCCCN3CCC(C)CC3)ccc2c1=O | 3.16µM*
O=C(Nc1ccc(CN2CCOCC2)cc1)c1cccs1 | -4.0%
CC(Sc1nc(-c2ccccc2)cc(C(F)(F)F)n1)C(=O)N1CCCC1 (stereo unspecified) | 3.0%
CCOC(=O)N1CCN(c2c(NCCCN(C)c3ccccc3)c(=O)c2=O)CC1 | 8.5%
N=c1n(CCOc2ccccc2)c2ccccc2n1CCN1CCOCC1 | 7.4%
CCOc1ccc(NS(=O)(=O)c2cc(Cl)ccc2OC)cc1 | -0.6%
CC(=O)C1C(c2ccc3ncccc3c2)NC(=O)NC1(O)C(F)(F)F (stereo unspecified) | 8.7%
CC1CC(=O)N(CC(=O)Nc2ccc3c(c2)OCCO3)c2ccccc2S1 (stereo unspecified) | 4.7%
COc1cccc(CNc2ccc3nc(-c4ccc(N)cc4)c(OC)n3n2)c1 | -1.7%
CCOC(=O)C1=C(C)NC2(O)c3ccccc3C(=O)C12O (stereo unspecified) | 8.7%
CC(c1nnnn1C1CCCCC1)N(Cc1ccccc1)Cc1cccnc1 (stereo unspecified) | -3.3%
COc1ccc(-c2cc(C(F)(F)F)n3nc(C(=O)N4CCOCC4)c(Cl)c3n2)cc1 | -20.7%
O=C(Nc1nc2c(s1)CCCC2=O)c1cnccn1 | -7.3%
CCOc1ccc(CCNC(=O)CCc2nc(-c3ccc(C)cc3)no2)cc1OCC | 2.7%

Overlap with the part before: 5 entries; new compounds follow.
SMILES | HSD17B inh
CCOC(=O)C1=C(C)NC2(O)c3ccccc3C(=O)C12O (stereo unspecified) | 8.7%
CC(c1nnnn1C1CCCCC1)N(Cc1ccccc1)Cc1cccnc1 (stereo unspecified) | -3.3%
COc1ccc(-c2cc(C(F)(F)F)n3nc(C(=O)N4CCOCC4)c(Cl)c3n2)cc1 | -20.7%
O=C(Nc1nc2c(s1)CCCC2=O)c1cnccn1 | -7.3%
CCOc1ccc(CCNC(=O)CCc2nc(-c3ccc(C)cc3)no2)cc1OCC | 2.7%
COc1ccc(S(=O)(=O)CCC(=O)NC2CCCCC2)cc1 | -16.4%
O=C(Cn1cnc2c(nnn2Cc2ccccc2F)c1=O)OCc1ccccc1 | -0.7%
Cc1ccc(N(CC(=O)N2CCn3c2nc2ccccc23)S(=O)(=O)c2c(C)n[nH]c2C)cc1 | -3.5%
CCC(=O)c1ccc(CCCCCC(=O)O)s1 | -19.0%
CC(Oc1ccc(Cl)cc1Cl)C(=O)Nc1ccc(N2CCN(C)CC2)cc1 (stereo unspecified) | 8.6%
COCC(=O)N1CCC2(CC1)CN(C(=O)Nc1ccccc1)C2 | 6.1%
Cc1nn2c3c(cnc2c1-c1ccccc1)C(=O)CC(C)C3 (stereo unspecified) | 3.9%
O=C(COc1ccc(S(=O)(=O)Nc2ccccc2)cc1)N1CCOCC1 | -7.0%
O=C(NCc1ccco1)c1cc(-c2cccs2)on1 | -3.2%
Cc1nc(NC(=O)CSc2nnc(C)n2CC2CCCO2)sc1C (stereo unspecified) | -5.0%
Cc1ccc(SC(C)c2nc(-c3ccccc3)no2)cc1 (stereo unspecified) | -8.9%
O=C(c1cc(-c2cccs2)on1)N1CCCCC1 | -2.6%
CCCCCn1c(CNC(=O)CCC)nc2ccccc21 | 6.5%
O=S(=O)(Nc1ccc(O)cc1)c1cccc2cccnc12 | 7.8%
Nc1nnn(Cc2ccccc2)n1 | 4.0%
CCOc1ccc(NC(=O)N2CCC(NC(=O)c3ccco3)CC2)cc1 | 13.1%
COc1cccc(NC(=O)C(C#N)Cc2ccncc2)c1 (stereo unspecified) | 5.3%
O=C(c1cccnc1)N1CCN(CCCc2ccccc2)CC1 | -7.8%
CCC(C)(C)NC(=O)C(c1cccs1)N(CC1CCCO1)C(=O)Cn1nnc2ccccc21 (stereo unspecified) | -1.0%
CCOC(=O)C1CCCN(C(=O)c2ccccc2SCCOC)C1 (stereo unspecified) | -5.7%

Another view of 2 compounds above:
compound,HSD17B inh
CC(Oc1ccc(Cl)cc1Cl)C(=O)Nc1ccc(N2CCN(C)CC2)cc1 (stereo unspecified),8.6%
CCC(C)(C)NC(=O)C(c1cccs1)N(CC1CCCO1)C(=O)Cn1nnc2ccccc21 (stereo unspecified),-1.0%

Later entries
SMILES | HSD17B inh
COc1ccc(S(=O)(=O)NCc2ccncc2)cc1OC | 7.7%
O=C(c1ccco1)N1CCC[C@@]2(CCN(c3ccncc3)C2)C1 | 6.1%
O=C(CSc1ccccc1)N1CCN(c2ccccc2)CC1 | -3.3%
COCCNC(=O)Cn1nc(C(F)(F)F)c(Br)c1C | 6.4%
COC(=O)Cn1cnc2c(nnn2-c2cccc(Cl)c2)c1=O | 9.8%
O=C(CSc1nnnn1C1CCCCC1)Nc1nc2c(s1)CCCC2 | -2.0%
CCOC(=O)CSc1cn2c(n1)CCC2 | 8.2%
O=c1c(CCc2ccccc2)nc2cnc(N3CCNCC3)nc2n1CCc1ccccc1 | 31.6µM*
CCNC(=O)N1C(CC(=O)OCC)C(=O)NC2CCCCC21 (stereo unspecified) | 5.2%
N#Cc1c(NC(=O)CSc2nc(N)cc(=O)[nH]2)sc2c1CCCCCC2 | 9.5%
Cc1ccc(NC(=O)CN(C)S(=O)(=O)c2cccc3cccnc23)cc1 | 1.7%
CCOC(=O)C1C(=O)OC2(CCOC(C)(C)C2)C1C(=O)OCC (stereo unspecified) | 13.3%
CCCN1CCC(NC(=O)Nc2ccc(F)cc2F)CC1 | 8.4%
Cc1ccc(C2CC(C(F)(F)F)n3nc(C(=O)NCc4c(C)nn(C)c4C)c(Cl)c3N2)cc1 (stereo unspecified) | -3.7%
Cc1cc2nc(-c3ccc(SCC(=O)N4CCOCC4)nc3)[nH]c2cc1C | 25.1µM*
Clc1ccc2c(c1)N(CCCN1CCCC13CCCCC3)c1ccccc1S2 | -2.7%[11.4 µM]
Oc1c(CN2CCOCC2)cc(-c2ccccc2)cc1CN1CCOCC1 | -3.0%
Cc1ccc(S(=O)(=O)N2CCN(S(=O)(=O)c3ccc(C)cc3)C3OCCOC32)cc1 (stereo unspecified) | 13.5%
CC(C)(C)n1ncc2c(=O)n(CC(=O)N3CCCCCC3)cnc21 | 3.7%
O=C(CSc1nc2ccccc2o1)Nc1nc2ccccc2s1 | 1.9%
COc1cc(Cl)c(CC(=O)c2c[nH]c3ccccc23)cc1OC | 3.2%[11.4 µM]
O=C(Oc1cccc(-n2cnnn2)c1)C1CCCCC1 | 0.1%
CC1CCN(C(=O)CSc2nncn2-c2ccccn2)CC1 | 0.3%
CCOc1cc(C#N)c(NC(=O)c2ccco2)cc1OCC | ?
Cc1ccc(C2C(C(=O)c3sc(-c4ccccc4)nc3C)=C(O)C(=O)N2CCN(C)C)o1 (stereo unspecified) | -2.1%
Cc1ccc(S(=O)(=O)N(C)Cc2cc3ccccc3[nH]c2=O)cc1 | 5.8%
CC1(C)Cc2c(sc3c2c(=N)n(Cc2ccco2)c(=O)n3Cc2ccc(F)cc2)CO1 | -0.4%
COC(=O)c1cc(NC(=O)CN2CCC(C(N)=O)(N3CCCCC3)CC2)cc(C(=O)OC)c1 | 6.8%
CCOc1cc(S(=O)(=O)n2c(C)nc3ccccc32)ccc1F | 1.0%
COc1cc(NCC[C@@H]2CCCCN2)c2ncccc2c1 | -1.7%[11.4 µM]
O=C(NCc1ccccn1)c1ccc(CS(=O)(=O)Cc2ccc(Cl)cc2)o1 | 1.3%
CCOC(=O)C1CCCN(C(=O)c2ccco2)C1 (stereo unspecified) | -5.5%
COc1ccc(S(=O)(=O)Nc2ccc3c(c2)OCO3)cc1C(=O)O | 5.9%
COc1ccc(/C=C/c2cc(O)cc(O[C@H]3OC(CO)C(O)C(O)C3O)c2)cc1 (stereo partly specified) | -4.1%
O=C(Nc1ccc2c(c1)CCC2)C1CCN(c2ncccn2)CC1 | ?
CC1CN2C(CCC(C)C2c2ccc(Br)cc2)C(=O)O1 (stereo unspecified) | 2.5%&2.4%&5.2%[11.4 µM]
COC(=O)NC(CC(C)=O)c1ccccc1 (stereo unspecified) | 3.1%[11.4 µM]
CSc1ccc(S(=O)(=O)N2CCN(Cc3ccc4c(c3)OCO4)CC2)cc1 | 9.2%
CC(=O)N1CCC2(CCCN(c3ccccc3)C2)CC1 | 8.3%
CN(C)C(=O)c1ccc(-c2ccc3ncnc(N4CCNCC4)c3c2)cc1 | 25.1µM*
CCOc1ccccc1CN1C(=O)NC(C)(c2ccccc2)C1=O (stereo unspecified) | -3.8%
CS(=O)(=O)N1CCC(C(=O)NCc2ccc(F)cc2Cl)CC1 | -2.8%
COC(=O)c1sc2nc(-c3ccco3)ccc2c1N | 5.2%
O=C(Cn1nc(C(F)(F)F)c2c1CCC2)NC1CCCCC1 | 10.1%
BrC1C(Br)C(Br)C(Br)C(Br)C1Br (stereo unspecified) | -23.1%
CCOc1ccc(S(=O)(=O)Nc2cc(OC)ccc2OC)cc1 | 0.9%
O=c1[nH]c(-c2ccc(Cl)cc2)nc2c1cnn2-c1ccccc1 | -20.8%
O=C(O)[C@@H](O)[C@@H](O)[C@@H](O)[C@@H](O)c1nc2ccccc2s1 | -21.9%[11.4 µM]
Fc1ccc(-n2[nH]nnc2=S)cc1N1CCCC1 | -25.5%
O/N=C(/Cc1ccccn1)c1ccccc1 | -4.3%
CCOC(=O)C(CC(C)C)CP(=O)(O)CNC(=O)OCc1ccccc1 (stereo unspecified) | 6.4%
CCOC(=O)c1ccc(NC(=O)COc2ccc(-n3cnnn3)cc2)cc1 | -8.6%
O=C(CCCN1C(=O)c2ccccc2C1=O)Nc1ccc(Br)cn1 | 1.0%
Cc1ccc(C2/C(=C(/O)c3ccccc3)C(=O)C(=O)N2CCN2CCOCC2)o1 (stereo unspecified) | -4.1%
CCc1cc2c(=O)n(Cc3ccco3)c(SCC(=O)N3CCCc4ccccc43)nc2s1 | -11.2%
Cc1nnc(NC(=O)C2C3C=CC(O3)C2C(=O)O)s1 (stereo unspecified) | 8.1%
Cn1c(N)c(C(=O)COC(=O)c2cccs2)c(=O)n(C)c1=O | 2.7%
COc1ccc(Cn2nnnc2C(CC(C)C)N2CCN(c3ccccc3)CC2)cc1 (stereo unspecified) | 6.1%
Cc1nc(NC(=O)COC(=O)C(NC(=O)c2ccco2)C(C)C)c(Cl)cc1Cl (stereo unspecified) | -7.6%
COC(=O)CNc1n[nH]c(=S)[nH]c1=O | 5.6%

The last 2 compounds of the section above open the next one.
SMILES | HSD17B inh
Cc1nc(NC(=O)COC(=O)C(NC(=O)c2ccco2)C(C)C)c(Cl)cc1Cl (stereo unspecified) | -7.6%
COC(=O)CNc1n[nH]c(=S)[nH]c1=O | 5.6%
Cc1ccc(NC(=O)CSC2=C(C#N)C(c3ccco3)C3=C(CC(C)(C)CC3=O)N2)cc1 (stereo unspecified) | 2.2%
CCOc1cc(C(=O)N(C)c2ccccc2)cc(OCC)c1OCC | 10.2%
C[C@H](Oc1ccccc1)C(=O)N[C@@H]1C(=O)N2[C@@H]1SC(C)(C)[C@@H]2C(=O)O | 1.4%[25.6 µM]
CCc1ccc(-c2nc(CN3CCC(C(=O)NCc4ccc(F)cc4)CC3)c(C)o2)cc1 | 4.3%
c1ccc2sc(N3CCN(Cc4ccc5c(c4)OCO5)CC3)nc2c1 | -1.2%
COc1cccc(CNC(=O)C2CCN(S(=O)(=O)N3CCCC3)CC2)c1 | 2.8%
Cc1ccc(S(=O)(=O)Oc2cc(N)c3c(n2)CCC3)cc1 | 2.2%[11.4 µM]
Cc1ccc(C(=O)CCC(=O)Nc2cccnc2)cc1C | -3.2%
O=C(Nc1ccc2c(c1)ncn2C1CCCCC1)c1ccco1 | 1.1%

Assay outcomes (PubChem BioAssay)
